HPGD inh: HPGD (human) dehydrogenase inhibition; AID 894; P15428; purified HPGD, NADH fluorescence kinetic, PGE2 substrate; Potency, µM, without a hit: at the top dose activity change, negative = inhibition, hits mostly inhibitors; actives 4.3% (n = 150,000); active = well fitted inhibition curve with a large enough effect (not every such curve was filed as active); inconclusive = small, poorly fitted or top-dose-only effect, or another doubt; inactive = no such curve, though single readings can be large or run the other way;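 note: top concentration of the series not given in the record; plate controls included wells without enzyme; inactives centre near -10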
Target sequence (P15428 whole entry, looked up): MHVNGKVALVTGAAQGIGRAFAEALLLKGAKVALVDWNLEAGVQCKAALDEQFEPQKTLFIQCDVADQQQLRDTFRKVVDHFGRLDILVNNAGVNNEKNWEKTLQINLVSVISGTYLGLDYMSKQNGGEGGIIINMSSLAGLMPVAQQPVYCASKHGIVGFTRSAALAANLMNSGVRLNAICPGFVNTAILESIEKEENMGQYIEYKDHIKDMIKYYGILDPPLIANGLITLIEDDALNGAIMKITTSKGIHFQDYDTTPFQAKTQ
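NADH formation kinetics: reaction with 30 uM PGE2 and 1 mM NAD+ (final), 20 nM enzyme, Tris-HCl pH 8 with Tween 20, after 15 min compound preincubation at room temperature. Fluorescence change, last versus first of five reads.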
An asterisk follows results filed as active; u = inconclusive; & = joins results of further samples. % is set by controls: 0 for no effect and ±100 for the full control effect; potency is the fitted concentration of half-maximal effect. Not all compounds are listed; count on the stated rates, not on these rows.

entry	SMILES	HPGD inh
1	CC(=O)NC1CC2CCCC(C1)N2CC(=O)Nc1ccccc1 (stereo not given)	-4%
2	Cc1cc(N2CCN(c3ccc(F)cc3)CC2)nc2cc(O)ccc12	-29%
3	CCOc1ccc(S(=O)(=O)N(CC(=O)O)c2ccccc2)cc1	-8%
4	O=C(NCCN1CCN(Cc2ccccc2)CC1)C1CC(=O)N(C2CCCC2)C1 (stereo not given)	-3%
5	O=C(/C=C/c1cccc(Cl)c1)Nc1ccncc1	-9%
6	O=C(NCc1cccnc1)c1cn(-c2ccccc2)nc1-c1cccs1	-14%
7	COc1cccc(OCC(=O)Nc2ccccc2C(N)=O)c1	-14%
8	COc1ccc(NC(=O)c2c(F)c(F)c(F)c(F)c2F)cc1Cl	-16%
9	Cc1ccc(S(=O)(=O)CCc2nnc(NC(=O)c3ccccn3)s2)cc1	-14%
10	O=C(OCCCC(=O)N1CCOCC1)c1ccccc1	-14%

3 records drawn at random from those above, as already listed:
entry	SMILES	HPGD inh
3	CCOc1ccc(S(=O)(=O)N(CC(=O)O)c2ccccc2)cc1	-8%
7	COc1cccc(OCC(=O)Nc2ccccc2C(N)=O)c1	-14%
9	Cc1ccc(S(=O)(=O)CCc2nnc(NC(=O)c3ccccn3)s2)cc1	-14%

Following part.
entry	SMILES	HPGD inh
11	COc1ccc(OC)c(Nc2nc(C3CC3)nc3c2nnn3Cc2ccccc2)c1	u
12	O=C(Nc1ccccc1)O/N=C(\c1ccccc1)c1ccccn1	7%
13	COc1ccc(C(=O)COc2ccc(NC(C)=O)cc2)cc1	-9%
14	CC1=C(/C=C/C(C)=C/C=C/C(C)=C/C(=O)O)C(C)(C)CCC1	-6%&-5%&-9%&-6%&-7%
15	CCCOc1ccc(Cn2ccnc2)cc1[N+](=O)[O-]	1%
16	CN(C)C=Nc1nonc1-c1ncn[nH]1	-3%
17	Cc1ccc(NC(=S)NCCc2ccccc2)c(C)c1	-27%
18	Cc1cccc(C(=O)Nc2ncc(CN3CCOCC3)s2)c1	-9%
19	CCOCCCNC(=O)C(c1ccc(C)cc1)N(Cc1ccc2c(c1)OCO2)C(=O)CNC(C)=O (stereo not given)	-8%
20	CC1Cc2ccccc2N1C(=O)c1cc2sccc2n1Cc1ccccc1 (stereo not given)	-12%

entry	SMILES	HPGD inh
21	CN1CCN(C(=O)c2cnn3c(C(F)(F)F)cc(-c4cccs4)nc23)CC1	u
22	Cc1[nH]c2ccccc2c1/C=N/NC(=O)C1CC1(c1ccccc1)c1ccccc1 (stereo not given)	-7%
23	COC(=O)CSc1nnc(-c2ccccc2O)n1-c1ccc(C)cc1	-24%
24	Cc1ccc(S(=O)(=O)Nc2nc3ccccc3nc2NCc2ccco2)cc1	u
25	COc1ccc(S(=O)(=O)N(CCc2ccccc2)CC(=O)O)cc1OC	-7%
26	O=C1NC(CCc2ccccc2)C(=O)N1Cc1ccccc1Cl (stereo not given)	-3%
27	O=C(O)/C=C\C(=O)Nc1cccc2c1-c1ccccc1C2=O	-18%
28	CCCOc1ccc(N2C(=O)CC(N3CCC(C(=O)OCC)CC3)C2=O)cc1 (stereo not given)	-7%
29	Cc1ccccc1-c1nc(-c2cccnc2)no1	u
30	COc1ccc(OCc2nc(N)nc(Nc3cccc(C)c3C)n2)cc1	-9%

entry	SMILES	HPGD inh
31	O=C1CC(c2ccccc2)n2nc(NC(=O)c3cccnc3)nc2N1 (stereo not given)	-2%
32	CCOC(=O)C1C(=O)C(C(=O)OCC)C(c2cccnc2)NC1c1cccnc1 (stereo not given)	-14%
33	O=C(NCc1cccc(C(F)(F)F)c1)c1cc(Cl)cc(Cl)c1	0%
34	COc1ccc(C(=O)NCc2ccccc2OC)cc1	-16%
35	COC(=O)CN1C(=S)N(c2ccc(Cl)cc2)C(=O)C1CC(=O)Nc1ccc(Cl)cc1 (stereo not given)	32µM*
36	Cc1ccc(-c2cc(C(=O)NC3=NCCS3)c3cc(Br)ccc3n2)o1	2.5µM*
37	COc1ccc(-n2nnc3c(=O)n(CC(=O)OCc4ccccc4)cnc32)cc1	-19%
38	Cc1cc(Cl)ccc1Oc1cccc(C(=O)/C(C#N)=C/N(C)C)c1	-30%
39	COC(=O)NCc1ccc(S(=O)(=O)N2CCOCC2)cc1	-5%
40	O=[N+]([O-])c1cc(S(=O)(=O)Nc2cccc(C(F)(F)F)c2)ccc1-n1nnc2ccccc21	32µM*

entry	SMILES	HPGD inh
41	CCCCN(C)CCC(=O)Nc1ccc(Cl)cc1	-6%
42	COC(=O)COc1ccc(S(=O)(=O)NC2CCCCCC2)cc1	-18%
43	COC(=O)Nc1ccc(S(=O)(=O)Nc2ccc(O)cc2)cc1	-2%
44	CCOCCOC(=O)CCSc1n[nH]c(=O)[nH]c1=O	-3%
45	CC1=C(/C=C/C(C)=C/C=C/C(C)=C\C=O)C(C)(C)CCC1	-6%
46	CN(CCOc1ccc(C[C@H](Nc2ccccc2C(=O)c2ccccc2)C(=O)O)cc1)c1ccccn1	-15%&-2%
47	COc1ccc(OC)c2sc(NC(=O)C3CC3)nc12	-17%
48	CCOP(=O)(c1ccccc1)C1(C#N)CCCC1 (stereo not given)	-3%
49	CNC(=O)CN1C(=O)C2C3C=CC(C3)C2C1=O (stereo not given)	-15%
50	CC1(C)Oc2ccc3ccc(=O)oc3c2C(/C=N/O)C1=O (stereo not given)	u

Quoted from above, nos. 49–50
entry	SMILES	HPGD inh
49	CNC(=O)CN1C(=O)C2C3C=CC(C3)C2C1=O (stereo not given)	-15%
50	CC1(C)Oc2ccc3ccc(=O)oc3c2C(/C=N/O)C1=O (stereo not given)	u

Further entries follow.
entry	SMILES	HPGD inh
51	CCOC(=O)C1C2C=CC3(CN(Cc4cccs4)C(=O)C13)O2 (stereo not given)	1%
52	CCN(CC)S(=O)(=O)c1cc([N+](=O)[O-])ccc1N=Nc1c(O)n(C)c2ccccc12	-6%
53	O=Cc1c(Cl)cccc1Cl	-2%
54	CSCC[C@H](NC(=O)Nc1cccc(C(F)(F)F)c1)C(=O)O	1%
55	O=C1OC(Oc2ccccc2)(c2ccccc2)c2ccccc21 (stereo not given)	-12%
56	COc1ccc([C@@H]2Sc3ccccc3N(CCN(C)C)C(=O)[C@@H]2OC(C)=O)cc1	-7%&-16%&-12%
57	CC(=O)n1cc(/C=C2/N=C(c3ccccc3)OC2=O)c2ccccc21	-6%
58	COc1ccc(C(=O)Nc2cc(C(C)=O)c(/C=C/N(C)C)oc2=O)cc1	-14%
59	CCOC(=O)N1CCN(C(=O)CNC(=O)Cc2ccc(Cl)cc2)CC1	1%
60	COc1ccc(C(C#N)Nc2ccccc2C)cc1 (stereo not given)	-10%

entry	SMILES	HPGD inh
61	Cn1cnnc1-c1cccc(NS(=O)(=O)c2ccc(N3CCCC3=O)cc2)c1	2%
62	CCc1ccc(/C=N/NC(=O)c2cc(-c3ccccc3OC)nc3ccccc23)s1	u
63	N#CCCSc1ccccc1NC(=O)c1ccc(S(=O)(=O)N2CCCC2)cc1	11µM*
64	O=C(CN(Cc1ccccc1)S(=O)(=O)c1ccc2c(c1)OCCO2)N/N=C/c1cccc(Br)c1	-14%
65	CCCN1CCN(c2nc(-c3cccs3)nc3ccccc23)CC1	-16%
66	CC(C)c1nnc(NC(=O)c2ccc(N3C(=O)CCC3=O)cc2)s1	-4%
67	COc1ccc(C2(C(=O)N3CCOCC3)CCOCC2)cc1OC	-7%
68	O=C(CSc1ncn[nH]1)Nc1nsc(-c2ccccc2)n1	-7%
69	CC1Cc2ccccc2N1C(=O)CSc1nnc(-c2ccccc2)c(-c2ccccc2)n1 (stereo not given)	-17%
70	CCOC(=O)c1cccc(NC(=O)C2CCCN(S(=O)(=O)c3c(C)n[nH]c3C)C2)c1 (stereo not given)	-9%

entry	SMILES	HPGD inh
71	Cc1ccc(NC(=O)CSc2nnc(C)n2-c2ccccc2)cc1	-3%
72	Cn1c(NC(=O)c2cccnc2)nc2ccccc21	-19%
73	Cc1ccc(C(=O)COc2nc(C)cc(C)c2C#N)cc1	-15%
74	COc1cccc(C2CC(c3ccccc3Cl)n3nnnc3N2)c1 (stereo not given)	-8%
75	Cc1cc(C)n2nc(C(=O)NCCc3ccccc3)nc2n1	-25%
76	COc1ccc(-c2cc(C(F)(F)F)nc(SCCC(=O)N3CCCC3)n2)cc1	u
77	Cc1cccc(OCc2nc(-c3cccnc3)no2)c1	-8%
78	Cc1ccc(-c2nnc3n2N=C(c2ccccc2Br)CS3)cc1	22µM*
79	CCn1c(SCC(=O)Nc2nc(C)cs2)nnc1-c1cccnc1	-6%
80	CC(CCc1ccccc1)NC(=O)c1cncc(Br)c1 (stereo not given)	-10%

Four entries out of the list, sorted by heavy-atom count, ascending:
entry	SMILES	HPGD inh
77	Cc1cccc(OCc2nc(-c3cccnc3)no2)c1	-8%
73	Cc1ccc(C(=O)COc2nc(C)cc(C)c2C#N)cc1	-15%
75	Cc1cc(C)n2nc(C(=O)NCCc3ccccc3)nc2n1	-25%
76	COc1ccc(-c2cc(C(F)(F)F)nc(SCCC(=O)N3CCCC3)n2)cc1	u

Later entries:
entry	SMILES	HPGD inh
81	COCCNC(=O)c1cn(Cc2c(F)cccc2Cl)nn1	-12%
82	CCOC(=O)NC(Nc1nnc(C)s1)(C(=O)OCC)C(F)(F)F (stereo not given)	-1%
83	COc1cc(C(=O)NCCC2=CCCCC2)cc(OC)c1OC	-7%
84	CCNC(=S)NS(=O)(=O)c1ccc(CC)cc1	u
85	CCc1nc2ccccc2n1CCC(C)C	-9%
86	Cc1ccccc1Cn1c(CN2CCN(C(=O)c3ccco3)CC2)nc2c1c(=O)n(C)c(=O)n2C	-2%
87	CCCSc1nsc(SCCC)c1C(N)=O	-13%
88	C=CCc1cc(C)ccc1OCC(O)CN1CCN(c2ccccc2)CC1 (stereo not given)	-16%
89	O=C(NNS(=O)(=O)c1ccccc1)C1CCN(S(=O)(=O)c2ccc(Cl)cc2)CC1	-3%
90	O=C(CNc1cc(S(=O)(=O)N2CCCC2)ccc1OCC(F)(F)F)Nc1cccc(C(F)(F)F)c1	-13%

entry	SMILES	HPGD inh
91	CNc1nc(-c2ccccc2)nnc1C(F)(F)F	-8%
92	Cc1cc(Nc2nc3c(c(=O)n(C)c(=O)n3C)n2C)n(-c2ccc(Cl)cc2)n1	-12%
93	Cc1ccc(NC(=O)C2C3C=CC4(CN(Cc5cccnc5)C(=O)C24)O3)cc1 (stereo not given)	0%
94	c1ccc(N2CCN(c3nc4ccccc4n4nnnc34)CC2)cc1	-26%
95	Cc1ccc(S(=O)(=O)c2nnn3c2nc(N2CCCCC2)c2ccccc23)cc1	u
96	Cc1cccc(CNc2nc(-c3cccc(NS(C)(=O)=O)c3)nc3ccccc23)c1	-11%
97	O=C1c2cccc3c([N+](=O)[O-])ccc(c23)C(=O)N1c1nccs1	-1%
98	CCOC(=O)c1c(N)sc2c(O)c(Br)ccc12	-20%
99	CC1(C)CC=C(O[Si](C)(c2ccccc2)c2ccccc2)CC1	-1%
100	CCOC(=O)CNc1c(-c2ccc(F)cc2)nc2cnccn12	u

Four compounds already listed, arranged by the number in HPGD inh, smallest number first:
entry	SMILES	HPGD inh
36	Cc1ccc(-c2cc(C(=O)NC3=NCCS3)c3cc(Br)ccc3n2)o1	2.5µM*
63	N#CCCSc1ccccc1NC(=O)c1ccc(S(=O)(=O)N2CCCC2)cc1	11µM*
78	Cc1ccc(-c2nnc3n2N=C(c2ccccc2Br)CS3)cc1	22µM*
35	COC(=O)CN1C(=S)N(c2ccc(Cl)cc2)C(=O)C1CC(=O)Nc1ccc(Cl)cc1 (stereo not given)	32µM*

Going on with the list:
entry	SMILES	HPGD inh
101	CCCOc1ccc(Br)cc1CSC(=N)N	u
102	COc1cccc2sc(Nc3nc4ccc(NC(C)=O)cc4s3)nc12	u
103	Cc1ccc([N+](=O)[O-])cc1S(=O)(=O)N(C(=O)c1ccncc1)c1ccc2oc3c(c2c1)CCCC3	-21%
104	Cc1cccc(-n2ncc3c(NCCc4ccc(S(N)(=O)=O)cc4)ncnc32)c1	-27%
105	O=C(CCC(=O)c1ccc(F)cc1)Nc1cccc(S(=O)(=O)Nc2cccc(Cl)c2)c1	u
106	COc1ccc(S(=O)(=O)N(CCO)c2ccccc2CN(C)CC=Cc2ccc(Cl)cc2)cc1	-14%
107	O=C(CN1CCN(C(=O)c2ccccc2F)CC1)Nc1ccc(Br)cc1	-6%
108	Cc1nnc(NC(=O)CSc2nnc(CCc3nc4ccccc4[nH]3)n2C)s1	-15%
109	CCNC(=O)CC1C(=O)N(c2ccc(OC)cc2)C(=O)N1Cc1ccc(OC)cc1 (stereo not given)	-10%
110	CCOc1ccc(C(=O)NCC2CCCO2)cc1 (stereo not given)	16µM*

entry	SMILES	HPGD inh
111	O=C(CSc1nc(O)c(C2CCCCC2)c(=O)[nH]1)NCC1CCCO1 (stereo not given)	-27%
112	Cc1nn(-c2ccccc2)c2sc(C(=O)N(CC(=O)NC3CCCC3)Cc3ccco3)cc12	-17%
113	CCN1C(=O)C(CC(=O)NC2CCCCC2)N(CC)C1=O (stereo not given)	-1%
114	O=C(CCSc1nc(-c2ccc3c(c2)OCO3)cc(C(F)(F)F)n1)NCc1ccco1	u
115	COc1ccc(OC)c(-c2nnc(SCC(=O)N3CCOCC3)o2)c1	-18%
116	COc1cc(C(c2c(C)[nH][nH]c2=O)c2c(C)[nH][nH]c2=O)ccc1OC(C)C	u
117	COc1ccc(NC(=O)C2c3cc(OC)c(OC)cc3C(=O)N(C)C2c2cccnc2)cc1OC (stereo not given)	2%
118	C=CC[n+]1c(-c2ccc(OCC)cc2)csc1NNC(=O)Nc1ccccc1	-12%
119	Cc1csc(NC(=O)Nc2ccc(Cl)cc2)n1	-11%
120	O=C1CCC(=O)N1CNc1cccnc1	-3%
121	Cc1cc(C)nc(/N=C/c2c(O)n(C)c(=O)n(C)c2=O)n1	-4%
122	COc1ccc(-c2ccc3c(N)c(C(=O)c4ccc(OC)c(OC)c4)sc3n2)cc1	1%
